Myc binder: c-Myc (human) binding; P01106; small molecule microarray, His-c-Myc binding, anti-His fluorescence; calls only; 17,000 compounds, 1.5% hits; AID 624141;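 active = spot fluorescence over background with P-value below 7% in all four replicate spots, showing protein binding; compounds were printed on slides so no solution concentration is given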;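 also: score is binary with 100 for all four spots passing and 0 otherwise; about 2 pmol printed per array spot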
Target sequence (P01106 whole entry, looked up): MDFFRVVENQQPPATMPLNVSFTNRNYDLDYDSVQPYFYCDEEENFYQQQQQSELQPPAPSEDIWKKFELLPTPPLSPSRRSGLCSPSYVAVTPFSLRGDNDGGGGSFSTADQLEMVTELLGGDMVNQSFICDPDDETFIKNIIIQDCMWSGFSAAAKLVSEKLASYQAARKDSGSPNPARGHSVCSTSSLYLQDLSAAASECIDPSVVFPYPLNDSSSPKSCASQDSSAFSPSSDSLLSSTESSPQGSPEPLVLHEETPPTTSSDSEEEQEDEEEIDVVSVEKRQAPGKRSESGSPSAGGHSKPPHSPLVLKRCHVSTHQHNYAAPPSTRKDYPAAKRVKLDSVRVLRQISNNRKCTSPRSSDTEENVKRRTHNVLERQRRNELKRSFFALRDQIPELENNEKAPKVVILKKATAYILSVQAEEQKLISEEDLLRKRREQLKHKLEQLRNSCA
STAT3 binder: STAT3 (human) binding | 17,000 compounds, 0.2% hits | P40763 | Small molecule microarray, His-STAT3 binding, anti-His fluorescence | calls only;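 active = compounds whose four printed spots each show fluorescence over background unusually high for their array block, chance value under 7%; compounds were printed on slides so no solution concentration is given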;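 also: about 2 pmol printed per array spot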
ID4 SMM: binders of human ID4 protein. small molecule microarray, Flag-ID4 binding, fluorescence F/B. calls only. 31,000 compounds, 1.2% hits. AID 624137;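 active = spot signal over background at p below 0.07 in all four prints; compounds were printed on slides so no solution concentration is given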;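 also: a binder raises fluorescence above local background on the spot; about 2 pmol printed per array spot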
Target sequence (P47928 whole entry, looked up): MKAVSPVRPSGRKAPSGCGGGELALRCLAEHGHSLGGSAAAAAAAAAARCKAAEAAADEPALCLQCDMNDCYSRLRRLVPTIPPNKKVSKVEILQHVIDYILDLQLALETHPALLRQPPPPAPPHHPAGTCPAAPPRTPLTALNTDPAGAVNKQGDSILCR
mut p53 SMM: binds human mutant p53 on microarray. calls only. small molecule microarray binding, anti-GST fluorescence. 17,000 compounds, 0.4% hits;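 active = compounds whose four printed spots each glow above background more than chance allows, each with a p-value under 7%; compounds were printed on slides so no solution concentration is given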;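 also: about 2 pmol printed per array spot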
Calls only; i = inactive; x = no result given; + = active, no number.

mol	Myc binder	STAT3 binder	ID4 SMM	mut p53 SMM
C=CCN1Cc2ccccc2[C@@H]2OC(c3ccc(OCCCO)cc3)=N[C@]2(CCS(=O)(=O)c2ccccc2)C1=O	i	i	i	i
C[C@@H]1CN([C@@H](C)CO)C(=O)c2cccc(NS(=O)(=O)c3cccs3)c2O[C@H]1CN(C)C(=O)Nc1ccc(C(F)(F)F)cc1	i	i	i	i
CC(CN1CCCCC1)NC(=O)c1cc(-c2ccccn2)nc2ccc(Cl)cc12 (configuration not stated)	i	i	i	i
O=C(Nc1ccccc1)C1=C[C@@H](c2ccc(Br)cc2)C[C@@H](OCc2ccc(CO)cc2)O1	i	i	x	i
Cc1ccc(S(=O)(=O)N2C(=O)CCC2C(N)=O)cc1 (configuration not stated)	i	i	i	i
C[C@H](CO)N1C[C@H](C)[C@@H](CN(C)Cc2ccc(Cl)c(Cl)c2)OCc2cn(nn2)CCCC1=O	i	i	i	i
Cc1cc(C)c2nc(-c3ccccn3)cc(C(=O)NCc3ccco3)c2c1	i	i	i	i
C[C@H]1CN([C@@H](C)CO)C(=O)c2cccc(NS(=O)(=O)c3cccs3)c2O[C@H]1CN(C)Cc1ccc(C(=O)O)cc1	i	i	i	i
O=C(NCc1ccccn1)c1cc(-c2ccccc2)on1	i	i	i	i
COc1cccc(OC)c1C(=O)NCCCO	i	i	i	i
C[C@@H]1CCCCO[C@H](CN(C)C(=O)CCC(F)(F)F)[C@@H](C)CN([C@@H](C)CO)C(=O)c2cc(NS(=O)(=O)c3ccccc3)ccc2O1	i	i	i	i
Cc1sc(NC(=O)C2CC(Cl)=CCC2C(=O)O)c(C#N)c1C (configuration not stated)	i	i	i	i
C[C@@H]1CCCCO[C@H](CN(C)Cc2ccncc2)[C@H](C)CN([C@H](C)CO)C(=O)c2cc(N(C)C)ccc2O1	i	i	i	i
C[C@H](CO)N1C[C@H](C)[C@H](CN(C)Cc2ccncc2)OCCCC[C@H](C)Oc2ccc(NS(C)(=O)=O)cc2C1=O	i	i	i	i
COc1cc([N+](=O)[O-])ccc1NC(=S)NCc1ccccn1	i	i	i	i
C[C@@H]1CCCCO[C@H](CN(C)S(=O)(=O)c2cccs2)[C@H](C)CN([C@@H](C)CO)C(=O)c2cc(N(C)C)ccc2O1	i	i	i	i
CC1(C)CC[C@]2(C(=O)O[C@@H]3O[C@H](CO)[C@@H](O)[C@H](O)[C@H]3O)CC[C@]3(C)C(=CCC4[C@@]5(C)C[C@@H](O)[C@H](O)[C@@](C)(COC(=O)c6cc(O)c(O)c(O)c6)C5[C@H](O)C[C@]43C)[C@@H]2C1 (some centres not stated)	i	i	i	i
CC(=O)Nc1ccccc1NC(=O)CN1C(=O)c2ccccc2C1=O	i	i	i	i
COc1ccc(NC(=O)Nc2ccc3c(c2)C(=O)N([C@H](C)CO)C[C@@H](C)[C@H](CN(C)C(=O)Nc2ccc4c(c2)OCO4)O3)cc1	i	i	x	i
O=C(C1=C[C@@H](C2CC2)C[C@@H](OCCCCO)O1)N1CCOCC1	i	i	x	i
C[C@@H]1CN([C@H](C)CO)C(=O)c2cccc(N(C)C)c2O[C@@H]1CN(C)C	i	i	i	i
C[C@H]1CN([C@@H](C)CO)C(=O)Cc2cc(NC(=O)Cn3cnnn3)ccc2O[C@H]1CN(C)C(=O)Nc1ccccc1	i	i	i	i
Cc1ncc([N+](=O)[O-])n1CC(=O)N(C)c1ccccc1	i	i	i	i
Cc1sc2nc(SCc3nc(-c4ccccc4)no3)n(-c3ccccc3)c(=O)c2c1C	i	i	i	i
COc1ccc2c(OC)c3ccoc3nc2c1OC	i	i	i	i
COc1ccccc1NC(=O)c1ccccc1NC(=O)CCc1ccccc1	i	i	i	i
COc1ccc(S(=O)(=O)Nc2ccc3c(c2)C(=O)N([C@@H](C)CO)C[C@@H](C)[C@@H](CN(C)Cc2ccncc2)O3)cc1	i	i	i	i
C[C@@H]1CN([C@H](C)CO)C(=O)c2cc(NS(=O)(=O)c3ccccc3)ccc2O[C@@H](C)CCCCO[C@@H]1CN(C)C(=O)c1ccccc1	i	i	i	i
C[C@@H]1CCCCO[C@@H](CN(C)Cc2ccncc2)[C@H](C)CN([C@H](C)CO)C(=O)c2cc(NS(=O)(=O)c3ccccc3)ccc2O1	i	i	i	i
O=C(CSc1ncn[nH]1)c1c[nH]c2ccccc12	i	i	i	i
COC(=O)C1=CO[C@@H](O[C@@H]2O[C@H](CO)[C@@H](O)[C@H](O)[C@H]2O)[C@H]2[C@@H]1[C@H](OC(=O)/C=C\c1ccc(O)cc1)C[C@]2(C)OC(C)=O	i	i	x	i
Cc1noc(C)c1S(=O)(=O)Nc1ccc2c(c1)CC(=O)N([C@@H](C)CO)C[C@H](C)[C@H](CN(C)C(=O)Nc1ccc(F)cc1)O2	i	i	i	i
COC(=O)c1ccc(NC(=O)CSc2nnc(-c3cccc(Cl)c3)n2C)cc1	i	i	i	i
CN/C(=C/[N+](=O)[O-])NCCSCc1csc(CN(C)C)n1	i	i	+	i
Cn1nnc2cc(NC(=O)NCCO)ccc21	i	i	i	i
Cc1ccc(S[C@]2(C(=O)NC3CC3)CC(=O)N(C3CCCCC3)[C@@H]2c2ccc(CO)cc2I)cc1	i	i	i	i
O=C(CN1CCOCC1)Nc1ccc(S(=O)(=O)N2CCCC2)cc1	i	i	i	i
C[C@@H]1CN([C@H](C)CO)C(=O)c2cc(NC(=O)c3ccncc3)ccc2O[C@@H](C)CCCCO[C@@H]1CN(C)S(=O)(=O)c1ccc(F)cc1	i	i	i	i
C[C@H](CO)N1C[C@H](C)[C@@H](CN(C)C(=O)Nc2ccccc2)Oc2ccc(NC(=O)Cc3ccccc3)cc2C1=O	i	i	i	i
COc1ccc(S(=O)(=O)Nc2ccc3c(c2)C(=O)N([C@@H](C)CO)C[C@H](C)[C@@H](CN(C)Cc2ccc(C(F)(F)F)cc2)OCCCC[C@@H](C)O3)cc1	i	i	x	i
C=C1[C@H]2CC[C@H](C(=O)O)[C@@]23CC[C@H](C3)C1(C)C	i	i	x	i
CCOc1c(O)ccc(C(c2c[nH]c3ccccc23)c2c[nH]c3ccccc23)c1[N+](=O)[O-]	i	i	i	i
C[C@H]1CN([C@@H](C)CO)C(=O)Cc2cc(NC(=O)Nc3ccc(C(F)(F)F)cc3)ccc2O[C@@H]1CN(C)C(=O)NC1CCCCC1	i	i	i	i
C[C@@H](O)CNC(C)(C)CC(=O)N[C@@H]1CCc2ccccc2N(Cc2ccc(-c3ccccc3-c3nn[nH]n3)cc2)C1=O	i	i	i	i
O=C(O)CCC(=O)Nc1ccccc1C(=O)O	+	i	i	i
C[C@@H]1CN([C@H](C)CO)C(=O)c2cccc(NC(=O)Nc3ccc(C(F)(F)F)cc3)c2O[C@H]1CN(C)C(=O)NC1CCCCC1	+	+	i	i
OC[C@H]1O[C@@H](OCc2ccccc2)[C@H](O[C@@H]2OC[C@](O)(CO)[C@H]2O)[C@@H](O)[C@@H]1O	i	i	i	i
C[C@@H]1CCCCO[C@H](CN(C)C)[C@H](C)CN([C@@H](C)CO)C(=O)c2cc(NS(C)(=O)=O)ccc2O1	i	i	i	i
C[C@]12CC[C@@H]3c4ccc(OS(=O)(=O)O)cc4CC[C@H]3[C@@H]1CCC2=O	i	i	i	i
C[C@@H]1CCCCO[C@H](CN(C)C(=O)Nc2ccc3c(c2)OCO3)[C@@H](C)CN([C@@H](C)CO)C(=O)c2cc(NS(=O)(=O)c3cccs3)ccc2O1	i	i	x	i
C[C@@H]1CN([C@@H](C)CO)C(=O)c2cccc(N(C)C)c2O[C@@H]1CN(C)C(=O)Nc1ccc(C(F)(F)F)cc1	i	i	i	i
C[C@H]1CN([C@@H](C)CO)C(=O)Cc2cc(NC(=O)Nc3ccc(F)cc3)ccc2O[C@@H]1CN(C)CC1CC1	i	i	i	i
CNC[C@H]1Oc2ccc(NC(=O)Cn3cnnn3)cc2CC(=O)N([C@H](C)CO)C[C@@H]1C	i	i	i	i
Cc1noc(C)c1NC(=O)Nc1ccc2c(c1)C(=O)N([C@@H](C)CO)C[C@H](C)[C@@H](CN(C)C)OCCCC[C@H](C)O2	i	i	i	i
CCc1c(C)nc(SCC(=O)Nc2cccc(Br)c2)[nH]c1=O	i	i	i	i
CN1CCN(CC(=O)Nc2ccccc2[N+](=O)[O-])CC1	i	i	i	i

Further records
mol	Myc binder	STAT3 binder	ID4 SMM	mut p53 SMM
C[C@H]1CN([C@@H](C)CO)C(=O)c2cccc(NS(=O)(=O)c3ccc(Cl)cc3)c2O[C@H]1CN(C)Cc1ccc2c(c1)OCO2	i	i	i	i
C[C@@H]1CN([C@@H](C)CO)C(=O)c2cccc(NC(=O)c3ccncc3)c2O[C@H]1CN(C)C(=O)Nc1ccccc1	i	i	i	i
C[C@H]1CN([C@@H](C)CO)C(=O)c2cccc(NC(=O)c3ccncc3)c2O[C@H]1CN(C)Cc1ccc(C(=O)O)cc1	i	i	i	i
C[C@H](CO)N1C[C@H](C)[C@@H](CN(C)C)Oc2ccc(NC(=O)CCC(F)(F)F)cc2CC1=O	i	i	i	i
Cc1noc(C)c1NC(=O)N(C)C[C@H]1Oc2c(NC(=O)c3ccncc3)cccc2C(=O)N([C@H](C)CO)C[C@@H]1C	i	i	i	i
Cc1noc(C)c1NC(=O)Nc1ccc2c(c1)C(=O)N([C@H](C)CO)C[C@@H](C)[C@H](CN(C)Cc1ccc(C(=O)O)cc1)OCCCC[C@H](C)O2	i	i	x	i
CC(C)NC(=O)N(C)C[C@H]1OCCCC[C@@H](C)Oc2ccc(NC(=O)CCC(F)(F)F)cc2C(=O)N([C@H](C)CO)C[C@H]1C	i	i	i	i
C[C@@H]1CCCCO[C@H](CN(C)C(=O)NC2CCCCC2)[C@H](C)CN([C@@H](C)CO)C(=O)c2cc(NC(=O)C3CCCCC3)ccc2O1	i	i	x	i
C[C@@H]1CN([C@@H](C)CO)C(=O)c2cc(N(C)C)ccc2O[C@@H](C)CCCCO[C@@H]1CN(C)S(=O)(=O)c1cccs1	i	i	i	i
C[C@H](CO)N1C[C@H](C)[C@@H](CN(C)CC2CC2)Oc2ccc(NC(=O)Cc3ccccc3)cc2CC1=O	i	i	i	i
O=c1[nH]c(=O)n(Cc2ccco2)c2c1C(C(F)(F)F)(C(F)(F)F)N=C(c1ccc(F)cc1)N2	i	i	i	i
COc1ccc(S(=O)(=O)Nc2ccc3c(c2)CC(=O)N([C@H](C)CO)C[C@@H](C)[C@@H](CN(C)Cc2ccc(C(F)(F)F)cc2)O3)cc1	i	i	i	i
C[C@H](CO)N1C[C@H](C)[C@H](CN(C)C(=O)NC2CCCCC2)Oc2ccc(NC(=O)Nc3cccc4ccccc34)cc2C1=O	i	i	i	i
Cc1cc(C)n(-c2nc3ccc([N+](=O)[O-])cc3nc2-n2nc(C)cc2C)n1	i	i	i	i
Cc1noc(C)c1S(=O)(=O)N(C)C[C@@H]1OCCCC[C@@H](C)Oc2ccc(NC(=O)CCC(F)(F)F)cc2C(=O)N([C@H](C)CO)C[C@H]1C	i	i	x	i
O=C(O)C1=C[C@@H](c2ccccc2)C[C@@H](OCc2ccc(CO)cc2)O1	i	i	i	i
COc1ccc([N+](=O)[O-])cc1CSc1nnc(-c2ccc(NC(C)=O)cc2)n1C	i	i	i	i
C[C@@H]1CN([C@@H](C)CO)C(=O)Cc2cc(NC(=O)CCC(F)(F)F)ccc2O[C@@H]1CN(C)Cc1ccccc1	i	i	x	i
CCC(Sc1nc2ccccc2o1)C(=O)Nc1cccc2ccccc12 (configuration not stated)	i	i	i	i
C[C@@H]1CCCCO[C@H](CN(C)Cc2ccc3c(c2)OCO3)[C@H](C)CN([C@H](C)CO)C(=O)c2cc(N(C)C)ccc2O1	i	i	x	i
O=C(Cc1ccccc1)NO	i	i	i	i
C[C@@H]1CN([C@H](C)CO)C(=O)CCCn2cc(nn2)CO[C@@H]1CN(C)C(=O)OCc1ccccc1	i	i	i	i
C[C@@H]1CCCCO[C@H](CN(C)Cc2ccc(C(=O)O)cc2)[C@@H](C)CN([C@@H](C)CO)C(=O)c2cc(NC(=O)C3CCCCC3)ccc2O1	i	i	i	i
COc1ccc(NC(=O)CSc2nc(C)cc(=O)[nH]2)cc1	i	i	i	i

Record cards, as listed above:
C[C@H]1CN([C@@H](C)CO)C(=O)Cc2cc(NC(=O)Nc3ccc(C(F)(F)F)cc3)ccc2O[C@@H]1CN(C)C(=O)NC1CCCCC1 reads Myc binder: i; STAT3 binder: i; ID4 SMM: i; mut p53 SMM: i
C[C@@H]1CN([C@H](C)CO)C(=O)c2cc(NC(=O)c3ccncc3)ccc2O[C@@H](C)CCCCO[C@@H]1CN(C)S(=O)(=O)c1ccc(F)cc1 reads Myc binder: i; STAT3 binder: i; ID4 SMM: i; mut p53 SMM: i
CC1(C)CC[C@]2(C(=O)O[C@@H]3O[C@H](CO)[C@@H](O)[C@H](O)[C@H]3O)CC[C@]3(C)C(=CCC4[C@@]5(C)C[C@@H](O)[C@H](O)[C@@](C)(COC(=O)c6cc(O)c(O)c(O)c6)C5[C@H](O)C[C@]43C)[C@@H]2C1 (some centres not stated) reads Myc binder: i; STAT3 binder: i; ID4 SMM: i; mut p53 SMM: i

From PubChem BioAssay
